High-throughput results as filed in PubChem.
AF4-AF9 inh = blocks AF4 peptide binding to human AF9; P42568; AlphaScreen, biotin-AF4 peptide binding to FLAG-AF9; inhibition, % at 10 µM; hit rate 0.47% among 350,000;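 active = every replicate reaching a set inhibition limit, whatever the replicate mean, cut at about 25% in these data; inconclusive = mean inhibition reaches that limit but some replicates miss it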;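 note: 0% = plate neutral control median and 100% = total signal loss; the record names both 10 and 1 µM as test concentration; the first replicate is given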
Target sequence (P42568 whole entry, looked up): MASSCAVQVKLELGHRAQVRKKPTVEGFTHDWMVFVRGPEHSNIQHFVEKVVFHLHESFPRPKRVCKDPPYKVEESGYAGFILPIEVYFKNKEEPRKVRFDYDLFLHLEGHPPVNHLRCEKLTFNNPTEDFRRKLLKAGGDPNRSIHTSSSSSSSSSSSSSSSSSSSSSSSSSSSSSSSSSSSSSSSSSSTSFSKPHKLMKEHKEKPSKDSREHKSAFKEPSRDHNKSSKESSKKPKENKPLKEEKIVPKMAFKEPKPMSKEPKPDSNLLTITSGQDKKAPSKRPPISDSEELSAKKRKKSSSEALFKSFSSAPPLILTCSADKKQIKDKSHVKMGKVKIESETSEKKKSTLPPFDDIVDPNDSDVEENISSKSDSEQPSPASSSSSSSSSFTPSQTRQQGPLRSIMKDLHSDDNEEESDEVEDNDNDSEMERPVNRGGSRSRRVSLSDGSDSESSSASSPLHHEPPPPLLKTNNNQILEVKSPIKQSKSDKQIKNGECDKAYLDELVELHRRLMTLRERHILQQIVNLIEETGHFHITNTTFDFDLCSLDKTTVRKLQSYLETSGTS
* marks the source's active call; other numbers are inactive results; ? = inconclusive.

The opening four records (preview)
AF4-AF9 inh	structure
0.1	COc1ccccc1CNC(=O)C[C@@H]1C=C[C@H](NC(=O)CN(C)C)[C@H](CO)O1
-2.6	CCC(=O)N[C@@H]1CC[C@@H](CC(=O)NCc2ccccc2OC)O[C@H]1CO
2.9	O=C(c1ccncc1)N1CC[C@@H]2[C@@H](CO)Nc3ccc(-c4ccccc4)cc3[C@@H]21
-1.5	COC(=O)[C@H]1[C@H](CO)[C@H]2Cn3c(ccc(-c4ccccc4F)c3=O)[C@H]2N1C(=O)c1cnccn1

All compounds of this part (from the top)
AF4-AF9 inh	structure
0.1	COc1ccccc1CNC(=O)C[C@@H]1C=C[C@H](NC(=O)CN(C)C)[C@H](CO)O1
-2.6	CCC(=O)N[C@@H]1CC[C@@H](CC(=O)NCc2ccccc2OC)O[C@H]1CO
2.9	O=C(c1ccncc1)N1CC[C@@H]2[C@@H](CO)Nc3ccc(-c4ccccc4)cc3[C@@H]21
-1.5	COC(=O)[C@H]1[C@H](CO)[C@H]2Cn3c(ccc(-c4ccccc4F)c3=O)[C@H]2N1C(=O)c1cnccn1
-2.1	O=C(C[C@H]1CC[C@@H]2[C@H](COC[C@@H](O)CN2Cc2ccncc2)O1)NCc1ccncc1
0.4	C[C@@H]1CCCCO[C@@H](CN(C)CC2CCCCC2)[C@H](C)CN([C@H](C)CO)C(=O)c2cc(NC(=O)c3ccncc3)ccc2O1
-2.1	CN(C)CCCNC(=O)C[C@@H]1C=C[C@H](NC(=O)c2ccccc2F)[C@@H](CO)O1
6.4	CCCN(C)C[C@@H]1Oc2cc(-c3ccc(OC)cc3)ccc2S(=O)(=O)N([C@@H](C)CO)C[C@@H]1C
-1.7	Cc1ccc(S(=O)(=O)N2C[C@H]3[C@H]4C(=O)N(C5CCCCC5)C(=O)[C@H]4CC(=O)[C@H]3[C@@H]2c2ccccc2Cl)cc1
6.3	C=CCN=C1NC(CCc2ccccc2)C(C(=O)OC)=C(C)N1Cc1cccc(C(F)(F)F)c1 (stereo not given)
-15.0	CCCNC(=O)N1[C@H](CO)[C@H](c2ccccc2)[C@@H]1CNC(=O)c1cccc(F)c1
-2.7	C[C@@H](O)C#Cc1ccc([C@@H]2[C@H]3CN(C(=O)c4ccc(F)cc4)CCCCN3[C@H]2CO)cc1
-0.3	CCCNC(=O)N1C[C@@H](C)[C@@H](OC)CN(C)C(=O)c2ccc(NC(=O)CCC)cc2OC[C@@H]1C
-3.9	C[C@H]1CN([C@@H](C)CO)C(=O)Cc2cc(NC(=O)CCC(F)(F)F)ccc2O[C@H]1CN(C)C(=O)NC1CCCCC1
1.1	Cc1ccc(-c2ccc3c(c2)O[C@H](CN(C)C(=O)NC(C)C)[C@H](C)CN([C@H](C)CO)S3(=O)=O)cc1
-2.5	N#Cc1cccc(-c2ccc([C@H]3[C@@H](CO)N[C@@H]3CNC(=O)C3CCC3)cc2)c1
?	CCN(C(=O)COC(=O)c1nc(Cl)ccc1Cl)c1c(N)n(Cc2ccccc2)c(=O)[nH]c1=O
-0.9	COC(=O)[C@]12C[C@H](CC(=O)NCc3ccc(OC)c(OC)c3)C(=O)N(CCC3=CCCCC3)C1=C[C@H](COCc1ccccc1)O[C@@H]2C
2.7	C[C@H]1CN([C@@H](C)CO)C(=O)c2cc(NC(=O)CCC(F)(F)F)ccc2O[C@@H]1CN(C)C(=O)Nc1ccc(C(F)(F)F)cc1
-0.5	CO[C@H]1CN(C)C(=O)c2cc(NC(C)=O)ccc2OC[C@H](C)N(CC2CC2)C[C@@H]1C
1.5	C[C@@H]1CN([C@@H](C)CO)C(=O)Cc2cc(NC(=O)Nc3cccc4ccccc34)ccc2O[C@H]1CN(C)CC1CCCCC1
0.9	Cc1ccc(C(O)c2ncc(-c3ccccc3Cl)[nH]2)cc1 (stereo not given)
0.0	COCc1cn(CC[C@H]2CC[C@H](NC(=O)Nc3ccc(Cl)cc3)[C@@H](CO)O2)nn1
2.2	COCC(=O)Nc1ccc2c(c1)OC[C@H](C)N(CCC(F)(F)F)C[C@H](C)[C@H](OC)CN(C)C2=O

An excerpt of these results, tab-delimited.
compound	AF4-AF9 inh
O=C(C[C@H]1CC[C@@H]2[C@H](COC[C@@H](O)CN2Cc2ccncc2)O1)NCc1ccncc1	-2.1
C[C@@H]1CCCCO[C@@H](CN(C)CC2CCCCC2)[C@H](C)CN([C@H](C)CO)C(=O)c2cc(NC(=O)c3ccncc3)ccc2O1	0.4
CN(C)CCCNC(=O)C[C@@H]1C=C[C@H](NC(=O)c2ccccc2F)[C@@H](CO)O1	-2.1
CCCN(C)C[C@@H]1Oc2cc(-c3ccc(OC)cc3)ccc2S(=O)(=O)N([C@@H](C)CO)C[C@@H]1C	6.4

Remaining list, next part:
AF4-AF9 inh	structure
-0.8	C[C@H](CO)N1C[C@H](C)[C@@H](CN(C)C(=O)NC2CCCCC2)Oc2c(NC(=O)c3ccc(-c4nccs4)cc3)cccc2C1=O
0.9	Fc1ccc2cc(C3=CCCCC3)ncc2c1
-3.2	O=C(c1ccc(C(F)(F)F)cc1)N1CCC(=O)N([C@H](COCc2ccc(C(F)(F)F)cc2)Cc2ccccc2)CC1
6.6	CN1C(=O)c2cc(NC(=O)Nc3ccc(Cl)cc3)ccc2OC[C@H]2O[C@@H](CC(=O)NCCN3CCCCC3)CC[C@@H]21
3.5	C[C@H]1CN([C@@H](C)CO)S(=O)(=O)c2ccc(C#CC3CC3)cc2O[C@H]1CN(C)C(=O)c1ccncc1
-4.8	Cc1ccc(/C(O)=C2\C(=O)C(=O)N(CCCN3CCOCC3)C2c2ccccc2F)cc1 (stereo not given)
2.2	COc1ccc2c3c(n(C)c2c1)[C@@H](CO)N(Cc1ccccc1)CC31CN(C(=O)C2CC2)C1
-4.4	C[C@@H]1CCCCO[C@@H](CN(C)C(=O)CCCN(C)C)[C@H](C)CN([C@@H](C)CO)C(=O)c2cc(NC(=O)CCC(F)(F)F)ccc2O1
5.0	C[C@@H]1CCCCO[C@H](CN(C)C(=O)C2CCCCC2)[C@@H](C)CN([C@@H](C)CO)C(=O)c2cc(NC(=O)Nc3ccc(F)cc3)ccc2O1
1.8	COc1ccc2c3c([nH]c2c1)[C@@H](CO)N(C(=O)Nc1ccc(F)cc1)CC31CCN(C(=O)Nc2ccccc2)CC1
0.0	C[C@@H]1CN([C@H](C)CO)C(=O)c2cc(NC(=O)Nc3ccccc3)ccc2O[C@@H]1CN(C)S(=O)(=O)c1cccs1
-3.6	Cc1ccc(S(=O)(=O)N[C@H]2CC[C@H](CC(=O)O)O[C@@H]2CO)cc1
5.2	C[C@H]1CN([C@@H](C)CO)C(=O)c2cc(C#CCN(C)C)cnc2O[C@H]1CN(C)Cc1ccc(F)cc1
-5.8	COCC(=O)N1C[C@@H](C)[C@H](OC)CN(C)C(=O)c2ccc(NC(=O)NC(C)C)cc2OC[C@@H]1C
0.1	CCCNC(=O)N1CC2(CN(C(=O)C3CCC3)C2)c2c([nH]c3cc(OC)ccc23)[C@H]1CO
-4.6	CC(=O)NC[C@H]1[C@@H](c2ccc(C#C[C@@H](C)O)cc2)[C@@H](CO)N1Cc1ccccn1
-0.1	COCC(=O)Nc1ccc2c(c1)[C@H]1C[C@H](CC(=O)N[C@H](C)c3ccccc3)O[C@@H](CO)[C@H]1O2
3.2	O=C(Nc1ccccc1F)N1CC(=O)N2[C@H](CO)[C@H](c3ccc(C#CC4CCCC4)cc3)[C@H]2C1
2.2	COc1ccc(C#Cc2ccc3c(c2)[C@@H]2[C@@H](CCN2S(=O)(=O)c2ccccc2C)[C@H](CO)N3C)cc1
-0.4	O=C(NCC[C@@H]1CC[C@H](NS(=O)(=O)c2ccc(F)cc2)[C@@H](CO)O1)c1ccc2c(c1)OCO2
-3.9	C/C=C/c1cnc2c(c1)C(=O)N([C@H](C)CO)C[C@H](C)[C@@H](CN(C)C(=O)NC1CCCC1)O2
-0.2	CC(C)NC(=O)Nc1ccc2c(c1)C(=O)N([C@H](C)CO)C[C@@H](C)[C@H](CN(C)S(=O)(=O)c1ccc(Cl)cc1)O2
1.7	C[C@H](O)C#Cc1ccc2c(c1)O[C@H](CN(C)Cc1ccccc1)[C@@H](C)CN([C@@H](C)CO)S2(=O)=O
-0.3	COCC(=O)N1C[C@@H](C)[C@H](OC)CN(C)C(=O)c2cc(NC(=O)Nc3cccc(F)c3)ccc2OC[C@H]1C
-1.6	COc1ccc(C(=O)Nc2ccc3c(c2)C(=O)N(C)[C@@H]2CC[C@H](CC(=O)NCC4CC4)O[C@H]2CO3)cc1
20.1	C[C@@H]1CN([C@@H](C)CO)C(=O)c2cc(N(C)C)ccc2O[C@@H](C)CCCCO[C@@H]1CN(C)CC1CCCCC1
3.8	C[C@@H]1CCCCO[C@@H](CN(C)Cc2ccccc2)[C@@H](C)CN([C@@H](C)CO)C(=O)c2cc(NC(=O)Nc3ccc4c(c3)OCO4)ccc2O1
-3.9	C[C@H]1CN([C@@H](C)CO)S(=O)(=O)c2ccc(-c3cncnc3)cc2O[C@H]1CN(C)Cc1ccccn1
-0.7	CS(=O)(=O)N1[C@H](C#N)[C@@H](c2ccccc2-c2ccc(F)cc2)[C@@H]1CO
-1.5	O=C(C[C@@H]1C[C@H]2c3cc(NC(=O)c4ccc5c(c4)OCO5)ccc3O[C@H]2[C@H](CO)O1)NCc1cccnc1
2.3	CCCNC(=O)N1CC2(C1)CN(C(=O)CC)[C@H](CO)c1c2c2ccc(OC)cc2n1C
2.5	C/C=C/c1cnc2c(c1)C(=O)N([C@H](C)CO)C[C@H](C)[C@@H](CN(C)C(=O)C1CCCCC1)O2
-1.8	COCC(=O)N1[C@@H](C#N)[C@@H](c2ccccc2C2=CCCCC2)[C@@H]1CO
-3.7	O=C(COC(=O)/C=C/c1cccc(C(F)(F)F)c1)Nc1cccc(S(=O)(=O)NC2=NCCC2)c1
-1.5	Cc1cccc(S(=O)(=O)NC(=O)C2(C)CCN2C(=O)CCC2CCCC2)c1 (stereo not given)
-2.6	COc1ccc(S(=O)(=O)N(C)C[C@@H]2Oc3c(cccc3N(C)C)C(=O)N([C@H](C)CO)C[C@@H]2C)cc1
0.4	Cc1noc(C)c1S(=O)(=O)Nc1ccc2c(c1)C(=O)N([C@H](C)CO)C[C@H](C)[C@@H](CN(C)S(=O)(=O)c1cn(C)cn1)OCCCC[C@@H](C)O2
-2.8	C[C@@H]1CCCCO[C@@H](CN(C)C(=O)C2CCCCC2)[C@@H](C)CN([C@H](C)CO)C(=O)c2cc(NC(=O)CCCCCC(=O)Nc3ccccc3N)ccc2O1
-1.7	Cc1cccc(C)c1NC(=O)C1(C)CCC(=O)N1c1cc(C(C)(C)C)nn1C (stereo not given)
3.7	CC(C)CC#Cc1ccc2c(c1)O[C@@H](CN(C)C(=O)C1CCC1)[C@H](C)CN([C@H](C)CO)S2(=O)=O
-1.0	O=C(Nc1ccc(C(F)(F)F)cc1)N[C@@H]1CC[C@H](CCNC(=O)c2ccccc2F)O[C@H]1CO
-1.2	COC(=O)C[C@@H]1CC[C@H]2[C@@H](COc3ccc(NS(=O)(=O)c4cccc(F)c4)cc3C(=O)N2C)O1
-1.6	C[C@@H]1CCCCO[C@@H](CN(C)Cc2ccc(C(F)(F)F)cc2)[C@@H](C)CN([C@@H](C)CO)C(=O)c2cc(NS(=O)(=O)c3ccc(Cl)cc3)ccc2O1
-1.7	C[C@H]1CN([C@@H](C)CO)C(=O)c2cccc(NC(=O)c3cnccn3)c2O[C@H]1CN(C)C(=O)NC1CCCCC1
1.5	COc1ccc2c3c([nH]c2c1)[C@@H](CO)N(C(=O)CC1CC1)CC31CCN(Cc2cccnc2)CC1
-0.4	Cc1ccc(C(=O)NCCN2CCC(n3c(=O)[nH]c4ccccc43)CC2)cc1C
-4.4	Cc1noc(C)c1S(=O)(=O)N1[C@@H]2CNC[C@H]1C2c1ccc(-c2ccccc2)cc1 (stereo not given in full)
3.4	O=C(NCCc1ccccc1)C1Cc2c(-c3ccccc3Oc3ccccc3)ccnc2O1 (stereo not given)

Reprinted at random: 2 compounds from above, in no set order.
AF4-AF9 inh	structure
-2.1	CN(C)CCCNC(=O)C[C@@H]1C=C[C@H](NC(=O)c2ccccc2F)[C@@H](CO)O1
0.1	CCCNC(=O)N1CC2(CN(C(=O)C3CCC3)C2)c2c([nH]c3cc(OC)ccc23)[C@H]1CO

The list goes on:
AF4-AF9 inh	structure
-3.4	CN1C(=O)c2cc(NC(=O)Nc3ccc(Cl)cc3)ccc2OC[C@@H]2O[C@@H](CC(=O)O)CC[C@H]21
1.1	CO[C@@H]1CN(C)C(=O)c2cc(NC(C)=O)ccc2OC[C@H](C)N(C(=O)C2CC2)C[C@H]1C
0.1	COCC(=O)Nc1ccc2c(c1)[C@@H]1C[C@H](CC(=O)NCCc3ccccc3)O[C@@H](CO)[C@@H]1O2
3.6	O=C(Nc1ccc(C(F)(F)F)cc1)N[C@@H]1CC[C@@H](CCn2cc(C3(O)CCCC3)nn2)O[C@H]1CO
4.8	C[C@H](CO)N1C[C@H](C)[C@H](CN(C)C(=O)NC2CCCCC2)Oc2c(NC(=O)c3nc4ccccc4s3)cccc2C1=O
5.9	COc1ccc(NC(=O)C2(C)CCN2Cc2csc3ccccc23)cc1OC (stereo not given)
5.0	COc1ccccc1CN(C)C[C@@H]1OCc2ccccc2-c2c(n(C)c3ccccc23)C(=O)N([C@H](C)CO)C[C@@H]1C
9.7	COc1ccc(-c2ccc3c(c2)O[C@H](CN(C)C(=O)c2ccccc2F)[C@H](C)CN([C@H](C)CO)S3(=O)=O)cc1
-2.0	COc1ccc(CN(C)C[C@H]2Oc3c(NC(=O)Nc4c(C)noc4C)cccc3C(=O)N([C@H](C)CO)C[C@H]2C)cc1
9.0	C[C@H]1CN([C@@H](C)CO)C(=O)Cc2cc(NC(=O)Cc3cn(C)c4ccccc34)ccc2O[C@H]1CN(C)CC1CCCCC1
-0.3	C[C@@H]1CN([C@@H](C)CO)C(=O)Cc2cc(NC(=O)Nc3ccc(C(F)(F)F)cc3)ccc2O[C@@H]1CN(C)CC1CC1

An excerpt (hit frequency here may not be typical).
